Assay outcomes from PubChem BioAssay.
2A firefly = FMDV 2A StopGo reporter, firefly signal. HEK cells with a luciferase reporter of 2A StopGo recoding. Potency, µM (titrated, usually from 57.5 µM), inactives show top-dose signal change, negative = less light. 0.23% of 120,000 active; active = well fitted falling curve with a large enough effect; inconclusive = small, poorly fitted or top-dose-only effect; inactive = no such curve, though single readings can be large or run the other way; note: nearly all actives have a fitted effect of over 60% in size; overnight with compound
2A Renilla = FMDV 2A StopGo reporter, Renilla signal | HEK cells with a luciferase reporter of 2A StopGo recoding | Potency, µM (titrated, usually from 57.5 µM), without a hit: at the top dose signal change, negative = less light | 0.32% of 120,000 active; active means well fitted falling curve with a large enough effect; inconclusive means small, poorly fitted or top-dose-only effect; inactive means no such curve, though single readings can be large or run the other way; note: nearly all actives have a fitted effect of over 55% in size; overnight with compound
Active calls of the source: *; ? = inconclusive; [ ] = dose if it differs, or a comment. % is set by controls: 0 for no effect and ±100 for the full control effect; potency is the fitted concentration of half-maximal effect. The order is random. Share with any hit: about 0.55%.

mol	2A firefly	2A Renilla
OC1C(O)C(O)C(O)C(O)C1O (stereo not drawn)	-22%	-14%
O=C(CN1C(=O)COc2ccc(S(=O)(=O)N3CCOCC3)cc21)NCc1ccc(F)cc1	-16%	-27%
COc1cccc(NC(=O)Nc2cc(C(=O)NCc3cccc(F)c3)ccc2N2CCOCC2)c1	24%	236%[activator]
Cc1cc(O)c(C(=O)c2cccs2)c(=O)o1	19%	-7%[1.06 µM]
CCN(c1ccc(Cl)cc1)S(=O)(=O)c1nnc(NC(=O)C(C)C)s1	-19%	-4%
CCOC(=O)c1cc(-c2ccc(F)cc2)n(CCC(=O)Nc2cc(OC)cc(OC)c2)c1C	-2%	0%
CC1(C)CC(=O)C2=C(C1)Nc1[nH]n(-c3ccccc3)c(=O)c1C2c1ccc(O)cc1 (stereo not drawn)	2%	10µM*
CCc1ccc(CNC(=O)c2ccc(-c3nc(CSc4ccc(C)cc4)c(C)o3)cc2)cc1	-18%	-12%
CCCCN(C)CCC(=O)Nc1ccc(F)cc1	1%	-4%
Fc1ccc(N=Cc2ccc(C=Nc3ccc(F)cc3F)cc2)c(F)c1	-5%	2%
Cc1ccc(C)c(SC(C)C(N)=O)c1 (stereo not drawn)	3%	6%
CC(=O)Nc1ccc(N=Cc2ccc(N(C)C)cc2)cc1	13%	0%
CN(CC(=O)NC(C)(C)C)C(=O)CSc1nnc(-c2cc3c(s2)CCC(C(C)(C)C)C3)n1C (stereo not drawn)	12%	8%
CONC(=O)COC(c1ccccc1)c1ccccc1	1%	-4%
Cc1oc2cc(OCC(=O)NCCCOC(C)C)ccc2c(=O)c1-c1ccc(Cl)cc1	?	?
CCn1cnc2c1c(=O)n(CC(=O)N(Cc1ccc(F)cc1)C1CC1)c(=O)n2Cc1ccccc1	-8%	-13%
O=C(NCc1ccccc1Cl)c1ccc2c(c1)nnn2C1CCCC1	132%[activator]	104%[activator]
O=C(NC1CCc2ccccc21)c1cc2c(s1)CCCC2 (stereo not drawn)	170%[activator]	136%[activator]
CCOC(=O)c1ccc(NC(=O)c2c(N3CCCC3=O)c3cc(OC)ccc3n2C)cc1	10%	23%
CC(C)Cn1nc(C(=O)Nc2nc(-c3ccc4c(c3)OCCO4)cs2)c2ccccc2c1=O	4%	-10%
Cc1c(CC(=O)NCCc2ccccc2)c(=O)oc2cc(O)c(Cl)cc12	0%	10%
CCOC(=O)c1cc(S(=O)(=O)N(C)c2ccccc2)[nH]n1	1%	23%
Cc1cc(C)nc(/N=C2\NC(=O)CN2c2cc(Cl)cc(Cl)c2)n1	-6%	-9%
Cc1ccc(NS(=O)(=O)c2ccc(NC(C)c3ccc(C)o3)c([N+](=O)[O-])c2)c(C)c1 (stereo not drawn)	15%	59%[activator]
O=C(c1cc(-c2ccccc2)on1)N1CCSCC1	81%[activator]	18%
CCN1CCN(c2cc(C)c3cc(NC(=O)c4ccccc4F)ccc3n2)CC1	-8%	-8%
CCC(=O)N1CCc2cc(S(=O)(=O)NCCC(=O)Nc3ccc(N(CC)CC)cc3C)ccc21	-10%	8%
CC(Cc1ccc(Br)cc1)NC(=O)C1CC2CCC1C2 (stereo not drawn)	44%[activator]	19%
CC(C)CC(=O)N1CCN(c2ccc(NC(=O)C3(c4ccccc4)CCCC3)cc2)CC1	5%	-1%
Cn1c(NCc2cccc(Cl)c2)nc2ccccc21	60%[activator]	1%
COCCNC(=O)CCc1ncc(-c2ccc(C)c(C)c2)o1	-6%	-2%
COc1ccccc1CNC(=O)c1sc(-c2ccc(OC)c(OC)c2)nc1C	66%[activator]	119%[activator]
CCOc1ccc(C(=O)Nc2nnc(SCc3cc(=O)c4cc(C)ccc4[nH]3)s2)cc1	6%	-10%
Cc1ccc(C)c(CN2C(=O)c3ccccc3S(=O)c3ccc(C(=O)N4CCCCC4)cc32)c1 (stereo not drawn)	-10%	-3%
CCN1CCN(c2ccc(NC(=O)c3cnc4ccccc4n3)cc2)CC1	84%[activator]	-17%
Cn1nnnc1SCCCNCc1ccc(-c2cccc(Cl)c2)o1	1%	-3%
O=C(NCc1cc(=O)n2nc(-c3ccccc3)sc2n1)Nc1ccccc1	4%	-8%
c1cc(CNC2CC2)c2cc[nH]c2c1	1%	-7%
CC(C#N)CN(C)C(=O)Cc1coc(-c2ccccc2)n1 (stereo not drawn)	88%[activator]	-9%
C/C(=N\NC(=S)NCc1ccccc1)C(C)C	1%	3%
CC(=O)c1cccc(NC(=O)c2noc3c2CCCC3)c1	207%[activator]	-2%
COc1cccc(Cn2cc(COC(=O)NCCc3ccccc3)nn2)c1	-7%	-1%
CCOc1ccc(-n2cc(-c3ccccc3)c3c(NCC4CCCO4)ncnc32)cc1 (stereo not drawn)	3%	30%[activator]
CCOC(=O)c1cn[nH]c1S(=O)(=O)N1CCCC1	-1%	-4%
CCOC(=O)N1CCC(NC(=O)c2ccc3c(c2)N(Cc2ccc(Cl)cc2)C(=O)c2ccccc2S3=O)CC1 (stereo not drawn)	-17%	-6%
N#Cc1ccc(C(=O)NC(c2cccs2)C2CCCC2)cc1 (stereo not drawn)	-7%	12%
CCC1CCC2(CC1)NC(=O)N(Cc1coc(-c3ccc(C)cc3)n1)C2=O (stereo not drawn)	7%	-3%
COc1ccc(-n2ncc(C(=O)Nc3cccc(C(F)(F)F)c3)c2C2CCN(C(=O)OC(C)(C)C)CC2)cc1	-21%	-14%
COc1ccc(Nc2ncc(C(=O)Nc3cc(C)ccc3OC)c3ccccc23)cc1	14%	17%
COc1ccc(C)cc1C(C)NC(=O)c1ccc2c(c1)OCO2 (stereo not drawn)	14%	13%

Carrying on.
mol	2A firefly	2A Renilla
O=C(c1ccc(OCc2cn3ccccc3n2)cc1)N1CCN(c2ccccn2)CC1	-108%	?
COCCCNC(=O)CSc1nc2cc3c(cc2c(=O)n1CCCC(=O)NCc1ccc2c(c1)OCO2)OCO3	-15%	-4%
CC1(C)Cc2c(C#N)c(Nc3ccccc3)n3c(SCC(=O)Nc4ccccc4)nnc3c2CO1	?	-32%
O=C(NCc1ccc(Cl)cc1)c1cc2c(s1)-c1ccccc1SC2	0%	60%[activator]
Clc1cc(Cl)cc(CN2Cc3ccccc3-n3nncc3C2)c1	7%	5%
O=C(CSc1nc2ccccc2c(=O)[nH]1)Nc1ccccc1O	39%[activator]	11%
CNC(=O)c1nn(CN2CCN(Cc3cc(C)ccc3OC)CC2)c(=O)c2ccccc12	-4%	18%
Cc1ccc(S(=O)(=O)CCC(=O)OCc2cc(=O)oc3cc(C)c(C)cc23)cc1	19%	9%
CCCNC(=O)c1cn(C)nc1-c1ccc2c(c1)OCCCO2	-12%	-7%
O=C(Nc1ccc2c3c(cccc13)CC2)c1cccc(I)c1	0%	8%

A section of the results above, as a working copy:
mol	2A firefly	2A Renilla
CC(=O)c1cccc(NC(=O)c2noc3c2CCCC3)c1	207%[activator]	-2%
COc1cccc(Cn2cc(COC(=O)NCCc3ccccc3)nn2)c1	-7%	-1%
CCOc1ccc(-n2cc(-c3ccccc3)c3c(NCC4CCCO4)ncnc32)cc1 (stereo not drawn)	3%	30%[activator]
CCOC(=O)c1cn[nH]c1S(=O)(=O)N1CCCC1	-1%	-4%
CCOC(=O)N1CCC(NC(=O)c2ccc3c(c2)N(Cc2ccc(Cl)cc2)C(=O)c2ccccc2S3=O)CC1 (stereo not drawn)	-17%	-6%
N#Cc1ccc(C(=O)NC(c2cccs2)C2CCCC2)cc1 (stereo not drawn)	-7%	12%
CCC1CCC2(CC1)NC(=O)N(Cc1coc(-c3ccc(C)cc3)n1)C2=O (stereo not drawn)	7%	-3%
COc1ccc(-n2ncc(C(=O)Nc3cccc(C(F)(F)F)c3)c2C2CCN(C(=O)OC(C)(C)C)CC2)cc1	-21%	-14%
COc1ccc(Nc2ncc(C(=O)Nc3cc(C)ccc3OC)c3ccccc23)cc1	14%	17%
COc1ccc(C)cc1C(C)NC(=O)c1ccc2c(c1)OCO2 (stereo not drawn)	14%	13%
O=C(c1ccc(OCc2cn3ccccc3n2)cc1)N1CCN(c2ccccn2)CC1	-108%	?
COCCCNC(=O)CSc1nc2cc3c(cc2c(=O)n1CCCC(=O)NCc1ccc2c(c1)OCO2)OCO3	-15%	-4%
CC1(C)Cc2c(C#N)c(Nc3ccccc3)n3c(SCC(=O)Nc4ccccc4)nnc3c2CO1	?	-32%
O=C(NCc1ccc(Cl)cc1)c1cc2c(s1)-c1ccccc1SC2	0%	60%[activator]
Clc1cc(Cl)cc(CN2Cc3ccccc3-n3nncc3C2)c1	7%	5%
O=C(CSc1nc2ccccc2c(=O)[nH]1)Nc1ccccc1O	39%[activator]	11%
CNC(=O)c1nn(CN2CCN(Cc3cc(C)ccc3OC)CC2)c(=O)c2ccccc12	-4%	18%

(more compounds)
mol	2A firefly	2A Renilla
O=C(O)C1CCN(C2CCOCC2)CC1	-2%	7%
N#CSc1ccc(NC(=O)c2ccc3c(c2)OCCO3)cc1	36%[activator]	-11%
O=C(Cn1ncn2nc(-c3cccs3)cc2c1=O)NCc1ccccc1Cl	1%	-9%
COc1cc2c(cc1OC)C(COc1ccccc1OC)N(C(=O)CC(C)C)CC2 (stereo not drawn)	9%	-5%
Cc1ccc(O)c(C)n1	8%	6%[1.06 µM]
CCOc1ccc(NC(=O)CSC2=NC3(CCCCC3)Nc3ccccc32)cc1	20%	7%
O=C1CC(c2ccccc2)c2ncn(-c3cc(F)ccc3F)c2N1 (stereo not drawn)	111%[activator]	6%
CCN(CCCNC(=O)c1nn(-c2ccc(OC)cc2)c(=O)c2c1c1ccccc1n2C)c1ccccc1	-16%	-12%
Cc1nn(CC(O)COc2ccccc2)c(=O)c2ccccc12 (stereo not drawn)	9%	0%
Cc1ccc(-c2noc(-c3ccc(N4CCCC4)c([N+](=O)[O-])c3)n2)cc1	?	-14%
CN1NC2(CCCCC2)NC1=S	0%	1%
O=C(CCc1cccnc1)NC1(c2ccc(Br)cc2)CC1	-1%	4%
CN(CCc1ccncc1)Cc1ccc(C#N)cc1	-12%	-15%
Cc1ccc(C(C)C)c(OCC(=O)NCc2ccc(Cn3cccn3)cc2)c1	15%	-11%
O=C(CSc1nnnn1C1CC1)Nc1ccc(N2CCN(Cc3ccccc3)CC2)cc1	8%	-11%
CCOc1ccc(NC(=O)c2ccc3nc(Cc4ccccc4)oc3c2)cc1	8%	8%
CCOCCCNC(=O)c1cccc(C#N)c1	10%	-11%
Cc1cccc(N2CCN(C(=O)C3CCN(S(=O)(=O)c4cn(C)c(C)n4)CC3)CC2)c1C	6%	12%
COC(=O)CC(NC(=O)c1ccc2c(c1)OCCCO2)c1ccc(F)cc1 (stereo not drawn)	8%	51%[activator]
CCOC(=O)c1ccc2c(c1)N(Cc1ccccc1)C(=O)c1ccccc1S2	-20%	3%
COc1cccc(Nc2cc(-c3ccccc3)nc(C)n2)c1	95%[activator]	0%
O=C(N/N=C/c1cccc(OCCCOc2ccccc2Cl)c1)c1ccccc1	0%	28%
CC(=O)c1cccc(NC(=O)Nc2nnc(N3CCCC3)s2)c1	2%	-7%
CSCc1nnc(SCC(=O)c2[nH]c(C)c(C(C)=O)c2C)o1	65%[activator]	4%
CC(=O)Nc1ccc(NC(=O)Cn2nc3nc(Nc4ccccc4)ccn3c2=O)cc1	-11%	-12%
CC(C)CC(NC(=O)c1cc2ccccc2s1)C(=O)O (stereo not drawn)	20%	38%[activator]
COc1c(C2CC(=O)Nc3c2ncn3-c2cccc(C(F)(F)F)c2)cc2c(c1OC)OCO2 (stereo not drawn)	0%	23%
CCCCCCCc1ccc(-c2nnc(-c3ccc(Br)cc3)o2)cc1	18%	4%
CCOc1ccccc1N(C)C(=O)C1CCCN(c2ncnc3c2nc2n3CCCCC2)C1 (stereo not drawn)	-15%	-9%
Cc1ccc(C(=O)NC(c2ccc(Cl)cc2)C2CC2)cc1 (stereo not drawn)	34%[activator]	32%[activator]
O=C(NCCNc1ncccn1)NCCNc1ncccn1	0%	6%
Cc1ccc(C)c(CN2CCC(CNC(=O)c3c(C)oc4ncnc(N5CCOCC5)c34)CC2)c1	-9%	-15%
CCCCOc1ccc(/C=C/C(=O)c2ccc(O)c(OC)c2)cc1OCC	0%	-11%
COc1ccc(-c2nnn(CC(=O)N3CCCC3c3ccc4c(c3)OCCO4)n2)cc1OC (stereo not drawn)	3%	4%
Cc1ccccc1C1=NN(S(=O)(=O)c2ccc(F)cc2)C(c2ccc3nccnc3c2)C1 (stereo not drawn)	15%	13%
Cc1ccc2oc(=O)c(S(=O)(=O)c3ccc(F)cc3)cc2c1	-12%	-10%
C=CCN1CCN(CC(=O)N(C)C)CC1	5%	-10%
CC(NC(=O)c1ccc(F)cc1)c1nc2ccccc2[nH]1 (stereo not drawn)	-7%	-11%
CCOC(=O)c1oc2cc(OCc3cccc(OC)c3)ccc2c(=O)c1-c1ccc(OC)cc1	1%	-5%
COCCn1c(SCCO)nc2c1c(=O)[nH]c(=O)n2C	6%	-1%
COc1ccc(C)cc1CCNCc1ccc(C)s1	-4%	3%
OC(c1ccccc1)c1nc2ccccc2n1Cc1c(F)cccc1Cl (stereo not drawn)	?	17%
CCc1ccc2nc(-c3ccc(C)cc3C)cc(C(=O)O)c2c1	?	?
COc1ccc(CN(C)c2nn3c(=O)cc(C)nc3s2)cc1OC	11%	4%
CCNc1c(NC(=O)Nc2ccc(OC)cc2)c(=O)oc2ccccc12	1%	2%
